# Bioassay records: PubChem, Broad Institute
# Ecoli rRNA inh – reduced GFP signal of wild-type E. coli, primary screen, bacterial rRNA inhibitor project, GFP/RFP fluorescence, OD600, single point; E. coli WT GFP vs humanized-ribosome RFP mutants, 24 h; stronger effect = lower value; DMSO median 0, no signal -100; GFP signal change (wild-type ribosome), % (concentration not given with the values); 1.6% of 350,000 active; AID 720706, 2013;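 active = significant combined selectivity score with lowered wild-type GFP, culture density cut under 30%, mutant RFP and density less affected; inactive = any of these conditions unmet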; note: one replicate is shown; some compounds called inactive have numbers as strong as hits
# Ecoli rRNA inh OD600 – second read-out of Ecoli rRNA inh, no call of its own (marks repeat the call); OD600 change, %; measured here: OD600 growth;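 optical density of the mix in the first replicate; 0 = DMSO median and -100 = no signal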
# Ecoli rRNA inh RFP – second read-out of Ecoli rRNA inh, no call of its own (marks repeat the call); RFP signal change, %; measured here: RFP humanized mutant strains;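 first replicate; 0 = DMSO median and -100 = no signal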
# Active calls of the source: *; & = joins results of further samples. This is a subset, so the mix of outcomes need not match the whole.
SMILES,Ecoli rRNA inh,Ecoli rRNA inh OD600,Ecoli rRNA inh RFP
COc1ccc2c3c(n(C)c2c1)[C@H](CO)N(C(=O)c1ccccn1)CC31CCN(C)CC1,4,6,-2.9
C[C@@H]1CN([C@H](C)CO)C(=O)CCCn2cc(nn2)CO[C@@H]1CN(C)C(=O)Nc1ccccc1,2,0,2.7
CO[C@@H]1CN(C)C(=O)c2cc(NC(=O)Nc3ccc(Cl)c(Cl)c3)ccc2OC[C@@H](C)NC[C@@H]1C,-8&-58,-8&-82,8.0&-18
CC[C@H]1CC=CC[C@H](C)Oc2ccccc2C(=O)N(C)[C@H](C(C)C)C(=O)N1 (mixture of isomers),0,12,-4.1
CNC[C@H]1Oc2ncc(C#Cc3cccc(OC)c3)cc2C(=O)N([C@@H](C)CO)C[C@H]1C,1,7,2.4
OC[C@@H]1Nc2ccc(-c3ccccc3)cc2[C@@H]2[C@H]1CCN2Cc1ccccc1F,-59,-76,-14
C[C@@H]1CN([C@@H](C)CO)S(=O)(=O)c2ccc(C#CC(C)(C)O)cc2O[C@@H]1CN(C)C(=O)C1CC1,3,10,-2.0
C[C@H](CO)N1C[C@H](C)[C@H](CN(C)S(C)(=O)=O)OCCCC[C@H](C)Oc2ccc(NC(=O)C3CCCCC3)cc2C1=O,0,3,-0.6
Cc1noc(C)c1NC(=O)N1C[C@@H](O)COC[C@@H]2O[C@H](CC(=O)N[C@@H]3CCN(Cc4ccccc4)C3)CC[C@H]21,-4,-12,-0.5
OC[C@@H]1[C@@H](c2ccc(-c3cccc(F)c3)cc2)[C@H]2CN(Cc3cncnc3)CCCCN12,2,2,-3.3
C[C@@H]1CN([C@H](C)CO)S(=O)(=O)c2ccc(-c3ccc(F)cc3)cc2O[C@H]1CN(C)Cc1cccc(F)c1,0,2,-0.3
C[C@@H]1CN(C)C(=O)c2cc(N)ccc2O[C@H]1CN(C)C,0,6,-1.5
Cc1cccc(-c2ccc([C@H]3[C@H]4CN(C(=O)c5cnccn5)CC(=O)N4[C@H]3CO)cc2)c1,2,1,0.1
C/C=C/c1cnc2c(c1)C(=O)N([C@H](C)CO)C[C@H](C)[C@@H](CN(C)C(=O)c1cccc(F)c1)O2,-1,-1,-2.2
C[C@@H]1CN([C@H](C)CO)C(=O)c2cccc(NS(C)(=O)=O)c2O[C@@H]1CN(C)S(=O)(=O)c1ccc(F)cc1,4,11,-0.1
C[C@H](NC(=O)C[C@@H]1C=C[C@H](NC(=O)Nc2ccc3c(c2)OCO3)[C@H](CO)O1)c1ccccc1,-1,-2,-0.6
CC=Cc1ccc2n(c1=O)C[C@H]1[C@H](CO)[C@@H](C(=O)NCCc3cn(C)cn3)[C@@H]2N1C(=O)C1CCC1 (mixture of isomers),2,-1,-1.0
CO[C@@H](C(=O)N(C)C[C@@H]1OCc2ccccc2-c2c(n(C)c3ccccc23)C(=O)N([C@@H](C)CO)C[C@H]1C)c1ccccc1,-1,-11,0.2
CNC[C@@H]1OCCCC[C@H](C)Oc2ccc(NC(=O)Nc3c(C)noc3C)cc2C(=O)N([C@H](C)CO)C[C@@H]1C,5,-1,-2.3
C[C@@H]1CN([C@@H](C)CO)C(=O)c2cc(NS(C)(=O)=O)ccc2O[C@@H](C)CCCCO[C@@H]1CN(C)Cc1ccccc1,1,-4,0.3
C[C@@H]1CN([C@H](C)CO)C(=O)c2ccccc2-c2ccccc2CO[C@@H]1CN(C)Cc1ccc2c(c1)OCO2,2,-12,-3.9
CC(=O)N(C)C[C@H]1Oc2cc(C3=CCCCC3)ccc2S(=O)(=O)N([C@@H](C)CO)C[C@H]1C,1,-14,-2.3
C[C@@H]1CN([C@H](C)CO)C(=O)c2cc(N(C)C)ccc2O[C@@H](C)CCCCO[C@H]1CN(C)C(=O)Nc1ccc(F)cc1,-2,3,-0.6
C[C@H](CO)N1C[C@H](C)[C@@H](CN(C)C(=O)C2CC2)Oc2ncc(-c3ccncc3)cc2C1=O,3,8,-3.6
CCCC(=O)Nc1ccc2c(c1)OC[C@@H](C)N(C(=O)c1ccccc1F)C[C@@H](C)[C@@H](OC)CN(C)C2=O,6,0,7.9
Cc1ccc(S(=O)(=O)N2CC[C@@H]3[C@H](CO)Nc4ccc(C#Cc5ccccc5F)cc4[C@@H]32)cc1,1,16,0.9
C[C@@H]1CN([C@@H](C)CO)C(=O)c2cc(C#Cc3cccc(F)c3)cnc2O[C@@H]1CN(C)CC1CC1,-4,11,-1.6
CCC(=O)Nc1ccc2c(c1)OC[C@@H](C)N(CC1CCCCC1)C[C@@H](C)[C@@H](OC)CN(C)C2=O,1,0,-1.7
C[C@@H]1CCCCO[C@H](CN(C)Cc2ccccc2)[C@@H](C)CN([C@@H](C)CO)C(=O)c2cc(N(C)C)ccc2O1,7,13,1.4
C[C@H]1CCCCO[C@@H](CN(C)C(=O)CCCN(C)C)[C@@H](C)CN([C@@H](C)CO)C(=O)c2cc(NS(C)(=O)=O)ccc2O1,1,5,-2.0
C[C@H](CO)N1C[C@H](C)[C@H](CN(C)Cc2ccc(-c3ccccc3)cc2)Oc2c(NC(=O)Nc3cccc4ccccc34)cccc2C1=O,2,2,2.2
CC(=O)N(C)C[C@@H]1Oc2ccc(N)cc2C(=O)N(C)C[C@H]1C,0,15,0.7
C[C@@H]1CN([C@H](C)CO)C(=O)c2cc(-c3ccncc3)cnc2O[C@@H]1CN(C)C(=O)C1CCC1,2,-2,2.5
O=C1N[C@@H](c2ccccc2)COCc2cnnn2CC[C@@H]1Cc1ccc(C(F)(F)F)cc1,-3,-4,-0.3
CC(=O)Nc1cccc2c1O[C@@H](CN(C)C(=O)OC(C)(C)C)[C@H](C)CN(C)C2=O,-2,2,-1.2
C[C@@H]1CN([C@@H](C)CO)C(=O)Cc2cc(NS(=O)(=O)c3cccs3)ccc2O[C@H]1CN(C)S(=O)(=O)c1cccs1,-5,-5,1.7
COc1ccc(C#Cc2ccc3c(c2)[C@H]2[C@H](CCN2C(=O)c2ccccc2F)[C@H](CO)N3C)cc1,-4,11,-1.7
O=C(c1ccccc1)N1CC(=O)N2[C@H](CO)[C@@H](c3ccc(/C=C/c4ccccc4)cc3)[C@@H]2C1,-9,-46,29
Cc1noc(C)c1S(=O)(=O)Nc1ccc2c(c1)C(=O)N([C@H](C)CO)C[C@H](C)[C@H](CN(C)C(=O)Nc1ccc(F)cc1)O2,0,1,-0.7
C[C@@H]1CCCCO[C@@H](CN(C)C(=O)c2ccccc2)[C@@H](C)CN([C@@H](C)CO)C(=O)c2cc(NC(=O)Nc3ccc4c(c3)OCO4)ccc2O1,1,-6,-4.0
C[C@@H]1CCCCO[C@H](CN(C)C)[C@H](C)CN([C@H](C)CO)C(=O)c2cc(N(C)C)ccc2O1,2,8,-2.5
C/C=C/c1ccc([C@H]2[C@@H](CO)N(C(=O)NC(C)C)[C@H]2CNC(C)=O)cc1,2,12,-3.5
CO[C@H]1CN(C)C(=O)c2ccc(NC(=O)c3ccccc3)cc2OC[C@H](C)N(C(=O)C2CC2)C[C@H]1C,-1,1,-2.1
COc1ccc(-c2ccc3c(c2)O[C@@H](CN(C)CC2CC2)[C@@H](C)CN([C@@H](C)CO)S3(=O)=O)cc1,0,2,1.7
C[C@H](CO)N1C[C@H](C)[C@@H](CN(C)S(=O)(=O)c2ccc(Cl)cc2)OCCCC[C@H](C)Oc2ccc(N(C)C)cc2C1=O,-8,-7,1.4

# 9 structures out of the list, arranged by length of the SMILES, ascending.
SMILES,Ecoli rRNA inh,Ecoli rRNA inh OD600,Ecoli rRNA inh RFP
O=C1N[C@@H](c2ccccc2)COCc2cnnn2CC[C@@H]1Cc1ccc(C(F)(F)F)cc1,-3,-4,-0.3
COc1ccc(C#Cc2ccc3c(c2)[C@H]2[C@H](CCN2C(=O)c2ccccc2F)[C@H](CO)N3C)cc1,-4,11,-1.7
C[C@@H]1CN([C@H](C)CO)C(=O)c2cc(-c3ccncc3)cnc2O[C@@H]1CN(C)C(=O)C1CCC1,2,-2,2.5
CO[C@H]1CN(C)C(=O)c2ccc(NC(=O)c3ccccc3)cc2OC[C@H](C)N(C(=O)C2CC2)C[C@H]1C,-1,1,-2.1
COc1ccc(-c2ccc3c(c2)O[C@@H](CN(C)CC2CC2)[C@@H](C)CN([C@@H](C)CO)S3(=O)=O)cc1,0,2,1.7
C[C@@H]1CN([C@@H](C)CO)C(=O)Cc2cc(NS(=O)(=O)c3cccs3)ccc2O[C@H]1CN(C)S(=O)(=O)c1cccs1,-5,-5,1.7
C[C@H](CO)N1C[C@H](C)[C@@H](CN(C)S(=O)(=O)c2ccc(Cl)cc2)OCCCC[C@H](C)Oc2ccc(N(C)C)cc2C1=O,-8,-7,1.4
C[C@H](CO)N1C[C@H](C)[C@H](CN(C)Cc2ccc(-c3ccccc3)cc2)Oc2c(NC(=O)Nc3cccc4ccccc34)cccc2C1=O,2,2,2.2
Cc1noc(C)c1S(=O)(=O)Nc1ccc2c(c1)C(=O)N([C@H](C)CO)C[C@H](C)[C@H](CN(C)C(=O)Nc1ccc(F)cc1)O2,0,1,-0.7

# The list goes on.
SMILES,Ecoli rRNA inh,Ecoli rRNA inh OD600,Ecoli rRNA inh RFP
COc1ccc2c3c([nH]c2c1)[C@H](CO)N(C(=O)c1ccncc1)CC31CN(Cc2cccnc2)C1,-3,-7,0.7
COc1ccc(S(=O)(=O)N2CCCCN3[C@H](CO)[C@H](c4ccc(C5=CCCC5)cc4)[C@H]3C2)cc1,-58,-72,-10
COc1ccc2c3c(n(C)c2c1)[C@@H](CO)N(Cc1ccccc1)CC31CN(CC2CC2)C1,0,2,0.1
O=C(Nc1ccc2c(c1)[C@H]1C[C@H](CC(=O)N3CCc4ccccc4C3)O[C@@H](CO)[C@H]1O2)Nc1ccccc1F,-7,-26,7.0
CCCNC(=O)N1C[C@H](C)[C@H](OC)CN(C)C(=O)c2cc(NC(=O)CCC)ccc2OC[C@@H]1C,-2,2,-0.7
N#Cc1cccc(-c2ccc3c(c2)[C@@H]2[C@@H](CCN2Cc2cncnc2)[C@H](CO)N3)c1,15,7,3.2
Cc1ccccc1-c1ccc([C@@H]2[C@H](CO)N3CCCCN(S(=O)(=O)c4ccc(F)cc4)C[C@@H]23)cc1,-57,-67,-13
CC(=O)NC[C@@H]1[C@@H](c2ccc(C3=CCCC3)cc2)[C@@H](CO)N1C(=O)NC(C)C,-3,6,0.1
CCS(=O)(=O)N1CC(=O)N2[C@H](CO)[C@@H](c3ccc(-c4ccccc4C)cc3)[C@@H]2C1,-1,-10,-2.6
OC[C@H]1[C@@H](c2ccc(-c3ccccc3F)cc2)[C@@H]2CN(Cc3ccncc3)CCCCN12,2,3,5.3
C[C@@H]1CCCCO[C@H](CN(C)Cc2ccc3c(c2)OCO3)[C@@H](C)CN([C@@H](C)CO)C(=O)c2cc(N(C)C)ccc2O1,2,-3,3.7
O=C(Nc1ccccc1F)N1C[C@@H]2[C@H](c3ccccc31)[C@@H](CO)N2C(=O)Cc1cccnc1,2,8,1.4
C[C@@H]1CN(C)C(=O)Cc2cc(N(C)C)ccc2O[C@@H]1CN(C)C,2,6,-0.4
O=C(C[C@H]1C=C[C@@H](NC(=O)Nc2ccc(C(F)(F)F)cc2)[C@@H](CO)O1)NCc1cccc(F)c1,-4,-25,4.8
CCC(=O)N1[C@H](CO)[C@H](c2ccccc2)C12CN(C(=O)c1cnccn1)C2,7,14,-0.8
C[C@H](CO)N1C[C@H](C)[C@H](CN(C)S(=O)(=O)c2ccc(Cl)cc2)Oc2c(NC(=O)c3cnccn3)cccc2C1=O,-6,-8,2.8
O=C(O)C[C@H]1C=C[C@@H](NC(=O)Nc2cc(F)ccc2F)[C@@H](CO)O1,0,0,0.2
CO[C@@H]1CN(C)C(=O)c2cc(NC(=O)NC(C)C)ccc2OC[C@H](C)NC[C@@H]1C,2,0,-1.7
CCS(=O)(=O)Nc1ccc2c(c1)C(=O)N(C)C[C@@H](OC)[C@@H](C)CN(C(=O)c1ccc3c(c1)OCO3)[C@H](C)CO2,-1,4,-3.2
Cc1cccc(-c2ccc([C@@H]3[C@H]4CN(C(=O)c5cnccn5)CC(=O)N4[C@H]3CO)cc2)c1,-1,-4,-0.7
CC(C)CC#Cc1ccc2c(c1)O[C@H](CN(C)Cc1cccnc1)[C@@H](C)CN([C@@H](C)CO)S2(=O)=O,-22,-29,9.0
CN1c2ccc(-c3cccc(F)c3)cc2[C@H]2[C@H](CCN2C(=O)Cc2cccnc2)[C@H]1CO,-16,-43,-2.5
C[C@H]1CN([C@@H](C)CO)C(=O)c2cccc(NC(=O)Nc3ccc(F)cc3)c2O[C@@H]1CN(C)S(=O)(=O)c1cn(C)cn1,0,6,-2.3
C[C@H]1COCc2cn(nn2)CC[C@@H](Cc2ccccc2)C(=O)N1,2,15,-7.2
CCC(=O)Nc1ccc2c(c1)C(=O)N(C)C[C@H](OC)[C@H](C)CN(C(=O)CN(C)C)[C@H](C)CO2,3,7,-2.2
COCC(=O)Nc1ccc2c(c1)OC[C@H](C)N(Cc1cccnc1)C[C@H](C)[C@@H](OC)CN(C)C2=O,-2,-8,1.6
C[C@@H]1CN([C@H](C)CO)C(=O)CCCn2cc(nn2)CO[C@H]1CN(C)Cc1ccc2c(c1)OCCO2,3,4,2.7
COc1ccc(S(=O)(=O)Nc2ccc3c(c2)C(=O)N([C@@H](C)CO)C[C@H](C)[C@@H](CN(C)C(=O)NC(C)C)O3)cc1,5,10,-0.8
CCCN(C)C[C@H]1Oc2cc(-c3cccc(F)c3)ccc2S(=O)(=O)N([C@H](C)CO)C[C@H]1C,-1,8,-0.7
Cc1ccc(S(=O)(=O)Nc2ccc3c(c2)CC(=O)N([C@@H](C)CO)C[C@H](C)[C@H](CN(C)Cc2ccc(C(F)(F)F)cc2)O3)cc1,-1,3,0.7
